Screens from PubChem BioAssay.
StopGo reporter – High Throughput Screening for Foot and Mouth Disease Virus Antivirals; human cells with a luciferase reporter of 2A StopGo recoding; control for the full effect not named in the record; Potency, µM (doses to about 57.9 µM), for inactives: at the highest dose signal change, negative = less light; 1.2% of 410,000 active; AID 1159524, 2015; active = well fitted falling curve with a large enough effect; inconclusive = small, poorly fitted or top-dose-only effect; inactive = no such curve, though single readings can be large or run the other way; tested in HEK293T cells; also: % is scaled to controls: 0 for no effect and ±100 for the full control effect; nearly all actives have a fitted effect of over 45% in size; luciferase light after 4 h
Cruzain inh Det – qHTS Assay for Promiscuous and Specific Inhibitors of Cruzain (with detergent). purified cruzain, Z-FR-AMC fluorescence, 0.01% Triton. Cruzipain (Trypanosoma cruzi), P25779. Potency, µM, for the others: max response, negative = inhibition, hits mostly inhibitors. 0.43% of 200,000 active; active = well fitted curve in the direction sought with a large enough effect; inconclusive = small, poorly fitted or top-dose-only effect, or another doubt; inactive = no such curve, though single readings can be large; an effect the other way counts as inactive or inconclusive;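 also: plate controls were neutral wells for no effect and buffer without enzyme for full effect; nearly all actives have a fitted effect of over 40% in size; top concentration of the series not given in the record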
Target sequence (P25779 123-467 limits assumed): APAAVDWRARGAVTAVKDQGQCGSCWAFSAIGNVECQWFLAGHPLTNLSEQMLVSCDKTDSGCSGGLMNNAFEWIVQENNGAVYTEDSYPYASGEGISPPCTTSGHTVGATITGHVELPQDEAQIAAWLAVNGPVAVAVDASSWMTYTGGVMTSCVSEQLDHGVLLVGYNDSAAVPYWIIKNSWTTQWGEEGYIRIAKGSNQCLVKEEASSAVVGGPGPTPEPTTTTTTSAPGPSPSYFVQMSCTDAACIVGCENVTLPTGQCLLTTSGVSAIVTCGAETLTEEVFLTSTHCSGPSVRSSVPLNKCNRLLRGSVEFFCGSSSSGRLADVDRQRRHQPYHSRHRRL
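Sodium acetate buffer (100 mM, pH 5.5) containing 5 mM DTT and 0.01% Triton X-100 hosted 1.5 nM cruzain and test compound for 15 min at room temperature. Cleavage of 2 uM Z-FR-AMC was then tracked by fluorescence.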
NS1 inh – qHTS Assay for Inhibitors of Influenza NS1 Protein Function; S. cerevisiae slowed by influenza A NS1, growth recovery by OD600; Potency, µM (highest dose often 46.1 µM), without a hit: at the highest dose activity, positive = more growth; AID 2326, 2010; 0.4% of 270,000 active; also: actives are rising curves; nearly all actives have a fitted effect of over 50% in size
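Growth recovery, yeast-based: influenza A NS1 expressed in S. cerevisiae causes slow growth, and suppressors are detected by OD600. The parent strain without NS1 is used as positive control.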
Marburg entry inh – qHTS for inhibitors of binding or entry into cells for Marburg Virus | Marburg virus pseudotyped entry inhibition, cell reporter; control for the full effect not named in the record; about a third of the inactives were read at about 46 µM | Potency, µM (doses to about 37.8 µM), for the others: at the top dose activity change, negative = inhibition, actives largely listed as inhibitors | 1.8% of 300,000 active; active = well fitted inhibition curve with a large enough effect; inconclusive = small, poorly fitted or top-dose-only effect, or effect the other way; inactive = flat fitted curve, though single readings scatter; tested in HEK293 cells; about a fifth of its hits are not listed in these tables; also: % is scaled to controls: 0 for no effect and ±100 for the full control effect; luciferase read-out
Cruzain inh noDet – qHTS Assay for Promiscuous and Specific Inhibitors of Cruzain (without detergent); Cruzipain (Trypanosoma cruzi), P25779; purified cruzain, Z-FR-AMC fluorescence, no detergent; Potency, µM, for inactives: max response, negative = inhibition, most hits filed as inhibitors; 2.3% of 200,000 active; AID 1476, 2009; active = well fitted curve in the direction sought with a large enough effect; inconclusive = small, poorly fitted or top-dose-only effect, or another doubt; inactive = no such curve, though single readings can be large; an effect the other way counts as inactive or inconclusive;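 also: plate controls were enzyme without inhibitor for no effect and buffer without enzyme for full effect; nearly all actives have a fitted effect of over 40% in size; top concentration of the series not given in the record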
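Detergent-free condition (0.00005% Triton X-100) in acetate buffer pH 5.5 with DTT. 1.5 nM enzyme and compound were pre-mixed 15 min, then 2 uM Z-FR-AMC substrate added; reaction progress from fluorescence change between first and third reads (60 s).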
RE007 growth inh – qHTS Assay for Inhibitors of the HIV-1 protein Vpr | Potency, µM (doses to about 92.2 µM), inactives show top-dose activity change, negative = less growth | S. pombe RE007 Vpr strain, BacTiter-Glo ATP luminescence, 24 h; control for the full effect not named in the record | 0.21% of 360,000 active | AID 651644, 2012; active = well fitted falling curve with a large enough effect; inconclusive = small, poorly fitted or top-dose-only effect; inactive = no such curve, though single readings can be large or run the other way;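 also: % is scaled to controls: 0 for no effect and ±100 for the full control effect; nearly all actives have a fitted effect of over 50% in size; the assay follows cell death caused by Vpr and the record does not say whether a fall means rescue or toxicity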
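Fission yeast RE007 carrying one integrated HIV-1 vpr copy, seeded at OD 0.01 in PMG+AL medium with 23 nL pinned compound. Grown 24 h at 30 degrees; viability read by BacTiter-Glo luminescence after 5 min.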
LASV entry inh – qHTS for Inhibitors of binding or entry into cells for Lassa Virus. Lassa virus pseudotype entry inhibition, cell reporter; control for the full effect not named in the record. Potency, µM (doses to about 37.9 µM), inactives show top-dose activity change, negative = inhibition, actives largely listed as inhibitors. 1.2% of 300,000 active. AID 540256, 2011; active means well fitted inhibition curve with a large enough effect; inconclusive means small, poorly fitted or top-dose-only effect, or effect the other way; inactive means flat fitted curve, though single readings scatter; tested in HEK293 cells; also: % is scaled to controls: 0 for no effect and ±100 for the full control effect; nearly all actives have a fitted effect of over 50% in size; luciferase read-out
SARS PLpro yeast – qHTS of Yeast-based Assay for SARS-CoV PLP | S. cerevisiae expressing SARS-CoV PLpro, growth rescue; control for the full effect not named in the record | Potency, µM (top dose mostly 32.9 µM), without a hit: top-dose activity, positive = growth rescue | 0.19% of 330,000 active | AID 485353, 2010; also: 0% is about no effect; nearly all actives have a fitted effect of over 55% in size; growth read by luminescence after 48 h
Active calls of the source: *; ? = inconclusive; . = not tested or not shown; & = joins results of further samples; [ ] = remark or other dose. Unless noted, calls follow the shape of the dose curve; as a rule, active means well fitted rising curve with a large enough effect; inconclusive means small, poorly fitted or top-dose-only effect; inactive means no such curve, though single readings can be large or run the other way. Potency is read from the fitted curve at half-maximal effect. Compounds were not picked by outcome; any-hit rate near 4.6%.

1: COc1ccc(NC(=S)NCc2cccnc2)cc1OC
2: COc1ccccc1N(Cc1ccccc1)S(=O)(=O)c1cccc(C(=O)O)c1
3: CC(C)(CCl)C(=O)Nc1ccc(Sc2ccc(F)cc2)cc1
4: CSc1nc2sc3c(c2c(=O)n1CC(C)C)CC(C)(C)OC3
5: CCCc1nnc(NC(=O)C2CCN(C(=O)C3CC(=O)N(c4ccc(C)cc4)C3)CC2)s1 (stereo not drawn)
6: CC(C)OC(=O)CSc1nnc2n1C(C)(C)Cc1ccccc1-2
7: COCCn1c(-c2cc(OC)c(OC)c(OC)c2)nc2nc3ccccc3nc21
8: CCOC(=O)c1nn(-c2ccc(C)cc2)c(=O)cc1OCC(=O)Nc1ccc(OC)cc1

assay / compound	1	2	3	4	5	6	7	8
StopGo reporter	8%	3%	?	-24%	-2%	21%	.	-14%
Cruzain inh Det	.	-2.7%	0.2%	.	.	-0.8%	5.0%	.
NS1 inh	-3%	?	-88%	1%	-8%	-4%	0%	.
Marburg entry inh	.	-9%	9%	?	?	0%	1%	-2%
Cruzain inh noDet	.	10%	-17%	.	.	-3%	-4%	.
RE007 growth inh	-16%	-11%	-25%	19%	13%	-24%	.	-3%
LASV entry inh	.	5%	0%	?	-6%	2%	.	-1%
SARS PLpro yeast	-1%	8%	-35%	2%	2%	-3%	-13%	5%

9: CCn1c(Cc2ccccc2)nnc1SCC(=O)Nc1ccc(N2CCOCC2)c(Cl)c1
10: O=C(Nc1cccc(C(F)(F)F)c1)c1cnc2n(c1=O)CCS2
11: O=C(O)COc1ccccc1/C=N/NC(=O)CSc1nc2ccccc2c(=O)n1-c1ccc(Cl)cc1
12: CC1(C)CN=C(Nc2nc3ccccc3s2)S1
13: Cc1ccc(C(=O)OCC(=O)NC(C)c2ccccc2)cc1C (stereo not drawn)
14: CCn1c(SCC(=O)c2ccccc2)nnc1-c1cccc(Cl)c1
15: CC(=O)NCCC(=O)NCC1(N(C)Cc2ccccc2)Cc2ccccc2C1
16: CN(Cc1cn(C)c2ccccc12)C(=S)Nc1cc(F)cc(F)c1

assay / compound	9	10	11	12	13	14	15	16
StopGo reporter	0%	17%	-10%	3%	-7%	-18%	-3%	5%
Cruzain inh Det	1.7%	-0.2%	.	-2.8%	.	-3.9%	.	-5.7%
NS1 inh	-11%	-32%	18%	-29%	.	.	15%	-5%
Marburg entry inh	1%&1%	.	.	?	12%	4%[46.1 µM]	.	-1%
Cruzain inh noDet	5%	?	.	-4%	.	-16%	.	-8%
RE007 growth inh	12%	-3%	0%	?	9%	.	6%	6%
LASV entry inh	4%	.	.	-7%	-8%	-29%[46.1 µM]	.	?
SARS PLpro yeast	-7%	-1%	1%	-7%	7%	.	-1%	10%

17: CC(=O)C1=C(O)C(=O)N(c2ccc(Br)cc2)C1c1ccc(Br)cc1 (stereo not drawn)
18: CC(=O)Nc1nc2ccc(C(=O)NC3CCCCC3)cc2s1
19: Cc1ccc(-c2cc(-c3ccccc3)nc(Cl)n2)cc1
20: COc1ccccc1NC(=S)N1CCNC(=O)C1CC(=O)Nc1cccc(C)c1 (stereo not drawn)
21: CC1CN(C(=O)c2ccccc2NS(=O)(=O)c2ccc(Cl)cc2)CC(C)O1 (stereo not drawn)
22: Cc1ccccc1N=CC=C1OC(C)(C)C(C)(C)O1
23: O=C(CN1C(=O)C2C3c4ccccc4C(c4ccccc43)C2C1=O)N1CCOCC1 (stereo not drawn)
24: Cc1cc(C(=O)NC2CCCCCC2)c2ccccc2n1

assay / compound	17	18	19	20	21	22	23	24
StopGo reporter	-4%	32%[activator]	10%	1%	13%	5%	-8%	1%
Cruzain inh Det	.	-5.7%	-1.1%	.	.	-4.8%	3.5%	.
NS1 inh	2%	4%	-4%	-12%	.	21%	14%	.
Marburg entry inh	.	-8%	22%	.	-7%	0%	1%	-20%[46.1 µM]
Cruzain inh noDet	.	-15%	1%	.	.	?	12%	.
RE007 growth inh	-2%	36%	-5%	3%	-5%	-17%	-29%	9%
LASV entry inh	.	2%	0%	.	1%	4%	9%	-3%[46.1 µM]
SARS PLpro yeast	8%	2%	-2%	1%	0%	9%	2%	4%

25: CCOC(=O)N1CCN(C(=O)CCc2nc3sc4c(c3c(=O)[nH]2)CCCC4)CC1
26: CC1(C)CC(NS(=O)(=O)OCC(Cl)(Cl)Cl)c2cc(C#N)ccc2O1 (stereo not drawn)
27: Cc1nc2nc(C)c(CCC(=O)NCCC3=CCCCC3)c(C)n2n1
28: Cc1cc(=O)n(-c2ccc(O)cc2)[nH]1
29: CN1CCN(CCCNC(=O)Nc2ccc([N+](=O)[O-])cc2)CC1
30: CCC(=O)c1ccc(OCC(O)Cn2nc(C)cc2C)cc1 (stereo not drawn)
31: COc1ccc(Cl)cc1-c1nc(-c2ccncc2)no1
32: CCOC(=O)c1ccccc1NC(=O)CSc1nccn1Cc1ccco1

assay / compound	25	26	27	28	29	30	31	32
StopGo reporter	-21%	?	15%	-3%	7%	5%	17%	-4%
Cruzain inh Det	.	.	1.8%	3.3%	.	.	-1.8%	-2.7%
NS1 inh	-9%&-1%	5%	-8%	7%	4%	-12%	18%	.
Marburg entry inh	-17%&-17%[46.1 µM]	.	-9%	-1%	21%	.	19%	.
Cruzain inh noDet	.	.	-8%	6%	.	.	-3%	-3%
RE007 growth inh	-21%	-12%	-14%	35%	-4%	-14%	-2%	.
LASV entry inh	17%	.	2%	0%	22%	.	24%	-12%[46.1 µM]
SARS PLpro yeast	-1%	-13%	2%	2%	-3%	-3%	-10%	.

Complete entries, quoted from the list:
Shown for `CC(C)(CCl)C(=O)Nc1ccc(Sc2ccc(F)cc2)cc1` : StopGo reporter: ?; Cruzain inh Det: 0.2%; NS1 inh: -88%; Marburg entry inh: 9%; Cruzain inh noDet: -17%; RE007 growth inh: -25%; LASV entry inh: 0%; SARS PLpro yeast: -35%
Shown for `O=C(Nc1cccc(C(F)(F)F)c1)c1cnc2n(c1=O)CCS2` : StopGo reporter: 17%; Cruzain inh Det: -0.2%; NS1 inh: -32%; Marburg entry inh: .; Cruzain inh noDet: ?; RE007 growth inh: -3%; LASV entry inh: .; SARS PLpro yeast: -1%

New compounds follow.
33: COc1ccc(C2Nc3ccccc3C(=O)N2Cc2ccccc2)cc1COc1ccccn1 (stereo not drawn)
34: CC(NC(=O)COC(=O)c1nc(Cl)ccc1Cl)c1ccccc1 (stereo not drawn)
35: Cc1cc(Br)ccc1OCC(=O)NNC(=O)CCc1ccccc1
36: Cc1ccc(NC(=O)CN(C)S(=O)(=O)c2ccc3c(c2)n(C)c(=O)c(=O)n3C)cc1F
37: COc1cccc(NC(=O)c2nn(C34CC5CC(CC(C5)C3)C4)cc2[N+](=O)[O-])c1
38: Cc1cc(C)cc(OC2CCCCC2NS(=O)(=O)c2ccccc2)c1 (stereo not drawn)
39: O=C(c1cccc(F)c1)N1CCN(S(=O)(=O)c2ccc(C(F)(F)F)cc2)CC1
40: O=C(c1ccc(Cn2cc(Cl)c([N+](=O)[O-])n2)cc1)N1CCN(Cc2ccccc2)CC1

assay / compound	33	34	35	36	37	38	39	40
StopGo reporter	.	-13%	7%	-5%	5%	4%	-9%	?
Cruzain inh Det	-9.5%	.	.	-2.9%	2.9%	-6.5%	-4.0%	.
NS1 inh	8%	.	3%	.	16%	-73%	-6%	-1%
Marburg entry inh	-16%	?	16%[46.1 µM]	5%[46.1 µM]	?	-33%	2%	.
Cruzain inh noDet	-21%	.	.	-11%	-10%	-6%	16%	.
RE007 growth inh	0%	-2%	4%	.	3%	16%	4%	0%
LASV entry inh	?	?	?	4%[46.1 µM]	?	1%	-27%[14.3 µM]	.
SARS PLpro yeast	7%	7%	1%	.	0%	-87%	4%	0%

41: Cc1oc2c(c(C)cc3oc(=O)c(CC(=O)NCc4ccc(F)cc4)c(C)c32)c1C
42: O=C1NC(=S)SC1=C1CCCC1
43: COCCn1nnnc1C(c1cc2cc(OC)c(OC)cc2[nH]c1=O)N1CCN(c2ccc(O)cc2)CC1 (stereo not drawn)
44: Cc1ccc(SC2=C(N(C)C)C(=O)c3ccccc3C2=O)cc1
45: FC(F)(F)c1ccc(N2CCN(c3ncnc4c3nnn4Cc3ccccc3Cl)CC2)cc1
46: O=C(CCc1nnc(COc2ccccc2)o1)NCc1ccc(Cl)s1
47: CC(C)Cc1nnc(NC(=O)CCC(=O)N2CCN(S(=O)(=O)c3ccccc3)CC2)s1
48: COc1ccc(CCNC(=O)COC(=O)/C=C/c2cc(OC)ccc2OC)cc1
49: NC(=O)c1cccn1Cc1cccc(Cl)c1
50: CCc1ccc(N(C(=O)c2ccoc2C)C(C(=O)NC2CCCC2)c2ccc(OC)cc2)cc1 (stereo not drawn)
51: Cc1cc(NC(=O)c2noc3c2CCCCC3)no1

assay / compound	41	42	43	44	45	46	47	48	49	50	51
StopGo reporter	-1%	3%	-5%	?	?	22%	-16%	-2%	-20%	.	45%[activator]
Cruzain inh Det	1.4%	-4.4%	.	.	-4.5%	.	3.6%	.	4.3%	-0.4%	4.0%
NS1 inh	.	-116%	2%	.	8%	-2%	11%	.	-4%	8%	-6%
Marburg entry inh	-2%[46.1 µM]	-1%	?	?	-5%	15%[46.1 µM]	-20%	-12%	22%	-27%	?
Cruzain inh noDet	-3%	-19%	.	.	-27%	.	9%	.	-13%	2%	-1%
RE007 growth inh	.	-20%	9%	?	-2%	2%	-1%	12%	-6%	-9%	-9%
LASV entry inh	4%[46.1 µM]	-1%	29%	?	8%	-4%[46.1 µM]	8%	8%	6%	-20%	-18%
SARS PLpro yeast	.	-7%	1%	.	1%	0%	11%	-3%	4%	0%	-2%
